Bfl-1 A1 inh: inhibitors of the anti-apoptotic protein A1, read as caspase activation. MEF A1-2A-BIM cells, Caspase-Glo 3/7 luminescence, 3 h; percent of clofoctol response, vehicle zero. caspase activation, % (no concentration beside the values). 0.066% of 330,000 active. AID 2462;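 active = over half of replicate activation scores above 10%, or exactly half above 10 with the replicate mean above 10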;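 note: wells of about 30 µL received 50 nL stock; many hits fall short of the cut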
UCH37 inh: human UCH37 deubiquitinating enzyme inhibition. Q9Y5K5. purified proteasome/UCH37, Ub-AMC cleavage fluorescence. inhibition, % (no concentration beside the values). 0.33% of 330,000 active. AID 588478;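 active = mean of two replicates above 20%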;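 note: 0% = compound-free wells with enzyme and 100% = wells lacking proteasome; stock transfer was 100 nL into about 20 µL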
Target sequence (Q9Y5K5 whole entry, looked up): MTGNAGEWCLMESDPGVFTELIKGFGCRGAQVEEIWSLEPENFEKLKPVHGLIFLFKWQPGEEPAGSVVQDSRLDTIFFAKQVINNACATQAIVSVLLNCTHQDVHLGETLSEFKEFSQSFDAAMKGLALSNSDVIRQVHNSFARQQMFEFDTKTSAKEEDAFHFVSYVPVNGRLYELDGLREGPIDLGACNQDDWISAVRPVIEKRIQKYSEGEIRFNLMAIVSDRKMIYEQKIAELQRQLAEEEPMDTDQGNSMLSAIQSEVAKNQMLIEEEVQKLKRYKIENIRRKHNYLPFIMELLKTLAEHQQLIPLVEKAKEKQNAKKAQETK
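Reagent: Ub-AMC substrate; assay system: Proteasome-associated human UCH37 deubiquitinase; controls: no-proteasome and no-compound wells; read-out: % inhibition of Ub-AMC cleavage fluorescence; timing: 30 min preincubation with enzyme, 25 min cleavage at room temperature; signal: AMC fluorescence from Ub-AMC cleavage, excitation 355 nm, emission 460 nm; buffer or medium: Tris-HCl pH 7.4 plus ovalbumin, ATP-MgCl2, DTT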
Beta cell apopt: beta cell apoptosis inhibition; INS-1E cytokine-induced death, ATP luminescence, 48 h; percent of positive-control rescue, neutral wells zero; protection from apoptosis, % (concentration not given with the values); 0.8% of 300,000 active;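 active = all replicates at 75% or more, or half of them and the mean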;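 note: 0% = cytokine-treated negative control wells and 100% = positive control rescue; higher means more ATP so stronger rescue from cytokine killing; wells of about 40 µL received 100 nL stock; the first replicate is given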
MLL AF4-AF9 inh: blocks AF4 peptide binding to human AF9; P42568; AlphaScreen, biotin-AF4 peptide binding to FLAG-AF9; inhibition, % at 10 µM; 0.47% of 350,000 active; AID 651704;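 active = every replicate reaching a set inhibition limit, whatever the replicate mean, cut at about 25% in these data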;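 note: 0% = plate neutral control median and 100% = total signal loss; the record names both 10 and 1 µM as test concentration; the first replicate is given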
Target sequence (P42568 whole entry, looked up): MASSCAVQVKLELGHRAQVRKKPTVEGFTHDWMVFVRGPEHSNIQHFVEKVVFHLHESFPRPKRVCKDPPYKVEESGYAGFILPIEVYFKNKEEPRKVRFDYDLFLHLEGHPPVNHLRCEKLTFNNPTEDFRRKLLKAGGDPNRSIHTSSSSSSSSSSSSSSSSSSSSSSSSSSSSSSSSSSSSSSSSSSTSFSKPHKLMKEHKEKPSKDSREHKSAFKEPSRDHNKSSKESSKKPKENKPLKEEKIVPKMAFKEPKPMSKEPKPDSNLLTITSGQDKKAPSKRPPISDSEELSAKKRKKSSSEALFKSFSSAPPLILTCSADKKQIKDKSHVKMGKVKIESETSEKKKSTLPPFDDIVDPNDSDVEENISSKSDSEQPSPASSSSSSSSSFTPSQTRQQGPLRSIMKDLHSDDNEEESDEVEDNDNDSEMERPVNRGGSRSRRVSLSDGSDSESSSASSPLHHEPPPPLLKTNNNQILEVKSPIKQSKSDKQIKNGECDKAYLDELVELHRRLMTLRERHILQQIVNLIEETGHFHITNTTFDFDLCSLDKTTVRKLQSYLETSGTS
rRNA inh HTS: inhibitors of bacterial rRNA selective over humanized ribosomes. GFP signal change (wild-type ribosome), % (concentration not given with the values). E. coli WT GFP vs humanized-ribosome RFP mutants, fluorescence, 24 h; hits give low values; DMSO median 0, no signal -100. 1.6% of 350,000 active;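 active = significant combined selectivity score with lowered wild-type GFP, culture density cut under 30%, mutant RFP and density less affected; inactive = any of these conditions unmet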; note: one replicate is shown; some compounds called inactive have numbers as strong as hits
FGF22 binding: binders of recombinant human FGF22 by thermal shift. 1.5% of 340,000 active. calls only at 9.99 µM. AID 651658. SYPRO orange fluorescence; percent of sucrose octasulfate shift, DMSO zero;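 active = melting point raised past a set limit in the mean and every replicate; three in four hits are not shown here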
Target sequence (Q9HCT0 whole entry, looked up): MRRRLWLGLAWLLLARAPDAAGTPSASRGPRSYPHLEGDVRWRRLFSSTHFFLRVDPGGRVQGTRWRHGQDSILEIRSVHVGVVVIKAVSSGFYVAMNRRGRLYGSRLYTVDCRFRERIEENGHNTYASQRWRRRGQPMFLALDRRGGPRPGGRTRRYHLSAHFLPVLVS
Ecoli growth: inhibitors of Escherichia coli growth; OD600, 23 h; hits give low values; OD600 absorbance (test concentration not listed); 0.21% of 330,000 active;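 active = OD600 absorbance below the run mean of sample wells minus 3.6 SD, in any replicate, cut at about 0.56 in these data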;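 note: stock transfer was 300 nL into about 60 µL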
T cruzi inh: T. cruzi replication inhibition; T. cruzi beta-gal in NIH3T3, luminescence, 90 h; inhibition, % (test concentration not listed); 1.4% of 300,000 active;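 active = mean inhibition across valid replicates above about 55%, limit read from the data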;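 note: signal also drops with host cell toxicity which is not excluded here; 0% = plate median of DMSO wells and 100% = zero luminescence signal; higher percent means less beta-gal luminescence so fewer parasites; stock transfer was 50 nL into about 50 µL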
rRNA inh HTS OD600: also measured in rRNA inh HTS; calls as there; OD600 change, %; measured here: OD600 growth;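 optical density of the mix in the first replicate; 0 = DMSO median and -100 = no signal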
rRNA inh HTS RFP: further read-out of rRNA inh HTS, marked with its call; RFP signal change, %; measured here: RFP humanized mutant strains;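 first replicate; 0 = DMSO median and -100 = no signal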
Starred values were filed as active, the others as inactive; i = inactive; . = no result given.

(1) Cc1cc(C)c(NS(=O)(=O)c2ccccc2)c(C)c1
(2) COc1ccccc1NC(=O)N(Cc1ccco1)Cc1cc2cc(C)cc(C)c2[nH]c1=O
(3) O=C(Nc1ccccc1Oc1ccsc1C(=O)O)c1ccccc1F
(4) Cc1ccc(S(=O)(=O)N(CCO)Cc2ccccc2)cc1
(5) CCC(=O)Nc1ccc(S(=O)(=O)Nc2cccnc2)cc1
(6) Cc1cccc(Nc2ncnc3ccccc23)c1
screen / no.,1,2,3,4,5,6
Bfl-1 A1 inh,.,1.0,0.9,0.4,0.3,-0.3
UCH37 inh,1.1,2.4,4.8,3.4,1.2,2.1
Beta cell apopt,.,6.8,-0.6,-5.2,-1.3,7.1
MLL AF4-AF9 inh,-1.3,.,-3.0,0.7,4.8,.
rRNA inh HTS,-38.9,.,13.9,7.3,2.8,-7.1
rRNA inh HTS OD600,-58.2,.,3.4,2.1,9.4,4.1
rRNA inh HTS RFP,-9.4,.,-0.4,2.2,2.1,5.8
FGF22 binding,i,.,i,i,i,.
Ecoli growth,0.63,0.748,0.691,0.666,0.666,0.659
T cruzi inh,.,29.9,-5.7,-2.2,0.7,-15.9

Ordered by length of the SMILES (lowest first): part of the list above.
(1) Cc1cc(C)c(NS(=O)(=O)c2ccccc2)c(C)c1
(3) O=C(Nc1ccccc1Oc1ccsc1C(=O)O)c1ccccc1F
(2) COc1ccccc1NC(=O)N(Cc1ccco1)Cc1cc2cc(C)cc(C)c2[nH]c1=O
screen / no.,1,3,2
Bfl-1 A1 inh,.,0.9,1.0
UCH37 inh,1.1,4.8,2.4
Beta cell apopt,.,-0.6,6.8
MLL AF4-AF9 inh,-1.3,-3.0,.
rRNA inh HTS,-38.9,13.9,.
rRNA inh HTS OD600,-58.2,3.4,.
rRNA inh HTS RFP,-9.4,-0.4,.
FGF22 binding,i,i,.
Ecoli growth,0.63,0.691,0.748
T cruzi inh,.,-5.7,29.9

Later entries:
(7) N#CCc1ccc(Oc2ncc(C(F)(F)F)cc2Cl)cc1
(8) COc1cccc(-c2cnc(NCc3cc(Cl)ccc3O)n2C)c1
(9) CN1c2ccsc2C(O)=C(C(=O)Nc2ccccc2)S1(=O)=O
(10) CC1=C(C(=O)Nc2cccnc2)C(c2ccncc2)n2nnnc2N1 (stereo not given)
(11) CCCn1c(N2CCN(Cc3cccc(C)c3)CC2)nc2c1c(=O)[nH]c(=O)n2C
(12) COC(=O)CSc1nn(-c2ccc(F)cc2)c(=S)s1
screen / no.,7,8,9,10,11,12
Bfl-1 A1 inh,0.3,0.4,-1.1,0.0,-0.2,0.0
UCH37 inh,1.8,3.8,15.1,0.9,3.0,0.6
Beta cell apopt,-12.4,-18.7,-2.5,-1.0,-5.5,-4.1
MLL AF4-AF9 inh,-0.9,.,.,.,-2.4,-1.7
rRNA inh HTS,7.3,.,.,.,-8.2,2.1
rRNA inh HTS OD600,6.6,.,.,.,-11.8,-0.6
rRNA inh HTS RFP,-0.9,.,.,.,-2.6,-0.1
FGF22 binding,i,.,.,.,i,i
Ecoli growth,0.679,0.593,0.71,0.74,0.738,0.709
T cruzi inh,20.2,5.8,-4.1,5.5,4.5,-18.5

An excerpt from above, limited to rRNA inh HTS RFP and T cruzi inh:
| no. | Molecule | rRNA inh HTS RFP | T cruzi inh |
| --- | --- | --- | --- |
| 8 | COc1cccc(-c2cnc(NCc3cc(Cl)ccc3O)n2C)c1 | . | 5.8 |
| 9 | CN1c2ccsc2C(O)=C(C(=O)Nc2ccccc2)S1(=O)=O | . | -4.1 |

Additional results follow:
(13) COc1ccc(CNC(=S)NC2CCCC2)cc1
(14) Cc1nn(Cc2ccc(Cl)cc2Cl)c(C)c1NC(=O)c1ccc(COc2cc(Cl)ccc2Cl)o1
(15) CCCn1c(SCC(=O)c2c(C)[nH]c(C)c2C(=O)OCC)nc2ccccc21
(16) CCN1CC(O)=C(c2nc3ccccc3s2)C1=N
(17) CCC1SC2=NC(C)=C(C(=O)OC)C(c3cccs3)N2C1=O (stereo not given)
(18) Cc1c(/C=C/C(=O)c2ccc(O)cc2)cnn1C
screen / no.,13,14,15,16,17,18
Bfl-1 A1 inh,-0.3,-0.9,0.4,-0.3,0.6,-1.4
UCH37 inh,0.3,3.4,4.6,2.6,5.7,1.5
Beta cell apopt,-0.6,6.5,-10.2,6.0,0.5,-4.1
MLL AF4-AF9 inh,-3.3,.,8.3,.,.,.
rRNA inh HTS,4.0,.,-43.3,.,.,.
rRNA inh HTS OD600,1.7,.,-62.2,.,.,.
rRNA inh HTS RFP,-0.3,.,-4.4,.,.,.
FGF22 binding,i,.,i,.,.,.
Ecoli growth,0.702,0.771,0.685,0.719,0.734,.
T cruzi inh,-10.3,59.5*,0.6,2.4,-0.4,5.9

(19) CCOc1ccc(CC(=O)NNC(=S)NCCc2ccccc2)cc1
(20) CC(C)Cn1c(N)c(C(=O)COC(=O)C2CC(=O)N(c3ccc4c(c3)OCCO4)C2)c(=O)n(C)c1=O (stereo not given)
(21) O=C(O)c1ccccc1CSc1nc2ccccc2o1
(22) O=C(COC(=O)c1ccccc1Br)NCc1ccccc1
(23) CCn1cc(C(=O)N(C)CC(OC)OC)c(=O)c2cc(S(=O)(=O)N3CCOCC3)ccc21
(24) CCOC(=O)c1cc(-c2ccncc2)nc2c1c(C)nn2C
screen / no.,19,20,21,22,23,24
Bfl-1 A1 inh,-1.0,-0.8,-10.9,0.0,1.2,0.2
UCH37 inh,3.8,0.0,2.1,2.2,2.7,-83.2
Beta cell apopt,-7.1,.,-3.5,2.1,-3.2,6.6
MLL AF4-AF9 inh,-1.1,0.4,.,.,0.3,.
rRNA inh HTS,2.9,-0.2,.,.,3.9,.
rRNA inh HTS OD600,-1.4,6.2,.,.,11.8,.
rRNA inh HTS RFP,0.9,-3.4,.,.,-0.1,.
FGF22 binding,i,.,.,.,i,.
Ecoli growth,0.695,0.714,0.702,0.704,0.649,0.725
T cruzi inh,4.7,2.5,-4.8,-27.2,-13.5,36.2

(25) CS(=O)(=O)N(CC(=O)N1CCC(C(N)=O)CC1)c1cc(C(F)(F)F)ccc1Cl
(26) Oc1ccc(/C=N/Nc2ncnc3nc[nH]c23)cc1
(27) COc1ccc(-c2csc(NC(=O)CSc3nc(C)nc4sc(C(=O)O)c(C)c34)n2)cc1
(28) Cc1cc(C)c(S(C)(=O)=O)c(Sc2ccc(Cl)cc2)n1
(29) COc1ccccc1S(=O)(=O)Cc1ccc(C(=O)N2CCN(c3ccccc3)CC2)o1
(30) COC(=O)Cc1c(C)c2c(O)cc(C)cc2oc1=O
screen / no.,25,26,27,28,29,30
Bfl-1 A1 inh,0.3,-6.8,-0.5,0.9,0.2,-0.1
UCH37 inh,-1.2,.,4.0,3.1,0.4,-25.0
Beta cell apopt,-1.2,-0.6,3.5,2.2,3.2,-3.2
MLL AF4-AF9 inh,-1.4,-8.5,6.3,.,.,.
rRNA inh HTS,-5.7,10.0,-1.1,.,.,.
rRNA inh HTS OD600,9.2,2.5,1.3,.,.,.
rRNA inh HTS RFP,1.0,2.4,-2.0,.,.,.
FGF22 binding,i,i,i,.,.,.
Ecoli growth,0.652,.,0.704,0.65,0.693,0.661
T cruzi inh,-12.9,27.6,21.1,0.3,-4.8,-6.4

(31) Cn1c(-c2ccc(Br)cc2)cnc1NCc1cccnc1
(32) C/C(Cc1ccccc1)=N\NC(=O)c1ccc(F)cc1
(33) COc1ccc2nc(NC(=O)C(NS(=O)(=O)c3cccc4nsnc34)C(C)C)sc2c1 (stereo not given)
(34) CC1CCCC(C)N1C(=O)CSc1nc(N)cc(N)n1 (stereo not given)
(35) O=C(c1ccc2ccccc2n1)N1CCN(S(=O)(=O)c2ccc(Cl)cc2)CC1
(36) O=C(CSc1nnc(-c2ccc(S(=O)(=O)N3CCCC3)cc2)n1CC1CCCO1)NC1CC1 (stereo not given)
screen / no.,31,32,33,34,35,36
Bfl-1 A1 inh,0.1,0.5,1.2,-0.2,-1.7,0.9
UCH37 inh,3.2,.,2.1,2.3,-4.1,1.2
Beta cell apopt,-21.7,-6.4,1.2,-3.3,-6.3,5.3
MLL AF4-AF9 inh,.,0.0,-6.2,-3.7,4.7,.
rRNA inh HTS,.,14.6,-2.2,-7.2,-7.2,.
rRNA inh HTS OD600,.,10.0,5.5,-8.0,-22.9,.
rRNA inh HTS RFP,.,-1.1,-0.8,-4.1,3.2,.
FGF22 binding,.,i,i,i,i,.
Ecoli growth,0.651,.,0.734,0.644,0.682,0.679
T cruzi inh,11.5,-15.3,.,6.0,.,-5.5

(37) CC(=O)Oc1cccc(N2C(=O)c3ccc(C(=O)Nc4cccnc4)cc3C2=O)c1
(38) COc1ccc(C2CC(c3ccccc3)=NN2c2ccc(S(N)(=O)=O)cc2)cc1OC (stereo not given)
(39) CC(C)(C)OC(=O)C[C@@H]1C/C=C\C[C@@H](CC(=O)N(CCO)Cc2ccccc2)C(=O)N[C@H](Cc2ccccc2)COC1=O
(40) CN(Cc1ccccc1)C(=O)c1ccccc1NC(=O)C1CC1
(41) COC(=O)C1=C(O)/C(=C\c2ccc(OCC(=O)Nc3ccccc3)cc2)N=C1C
(42) Cc1c(C(=O)O)sc(S(=O)(=O)N2CCN(C(=O)CCc3ccccc3)CC2)c1C(=O)O
screen / no.,37,38,39,40,41,42
Bfl-1 A1 inh,-0.1,-0.9,0.7,0.7,0.8,.
UCH37 inh,3.6,i,0.0,-2.4,-0.7,1.5
Beta cell apopt,2.3,.,6.3,-4.3,-7.1,.
MLL AF4-AF9 inh,0.3,-26.4,2.9,-6.1,1.0,3.0
rRNA inh HTS,-1.5,-3.0,2.4,4.1,-0.9,3.9
rRNA inh HTS OD600,0.6,-7.3,2.7,8.9,10.2,0.3
rRNA inh HTS RFP,-1.8,-5.1,-1.6,2.9,-4.2,0.3
FGF22 binding,i,.,i,i,i,i
Ecoli growth,0.658,0.71,.,0.71,0.706,0.669
T cruzi inh,-6.6,27.6,.,-11.2,-5.8,.

(43) C[N+](C)(C)CCCCCC(=O)/C=N/O
(44) COc1cccc(N(CC(=O)NCCSc2ccccn2)S(C)(=O)=O)c1
(45) COc1ccc(NC(=O)Cn2cnc3c(oc4nc5c(cc43)COC(C)(C)C5)c2=O)cc1
(46) COc1ccccc1C1CCN(C(=O)c2cccs2)CC1
(47) COc1cccc(C(=O)Nc2nnc(S(=O)(=O)N3CCCCC3)s2)c1
(48) Cc1nc2ccc(S(=O)(=O)N(C)CC(=O)NCCc3ccccc3)cc2s1
screen / no.,43,44,45,46,47,48
Bfl-1 A1 inh,0.1,0.5,1.8,-1.0,-0.2,-0.4
UCH37 inh,.,0.4,3.5,1.4,0.8,1.8
Beta cell apopt,0.2,1.3,-2.9,-1.6,1.2,1.3
MLL AF4-AF9 inh,0.5,.,-1.0,-5.0,-12.2,-4.5
rRNA inh HTS,11.2,.,-2.5,-25.2*,-1.8,6.5
rRNA inh HTS OD600,0.1,.,0.1,-8.6*,-20.4,-3.0
rRNA inh HTS RFP,2.1,.,-2.1,-2.0*,-1.3,1.2
FGF22 binding,i,.,i,i,i,i
Ecoli growth,.,0.717,0.717,0.614,0.716,0.646
T cruzi inh,-14.2,10.7,-7.6,17.3,9.1,-0.7

Screening results from PubChem BioAssay.

Some of the compounds tested, so the mix of outcomes need not match the whole.
